Source: PubChem (several laboratories)
Arbovirus anti – antivirals against arbovirus infection, primary screen, cell-based, full library, 10K replicate subset; arbovirus infection cell-based antiviral screen; inhibition, % at 10 µM; 200,000 tested, 0.37% active; AID 1251, 2008;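 active = inhibition from about 30%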;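 note: bluetongue infection of BSR cells; cell survival read as ATP light after 72 h; 0% = infected wells without compound and 100% = uninfected wells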
Mtb growth – M. tuberculosis H37Rv growth inhibitors, H37Rv strain (AID 1626); M. tuberculosis H37Rv growth inhibition; higher % means a stronger effect; 220,000 tested, 0.95% active; one-dose inhibition, % at 10 µM; IC50 in µM for titrated hits;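 active = confirmed in a dose series; inconclusive = inhibition above 80% but not taken into the dose series; inactive = below 80% or under 30% at every dose of the series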;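 note: bacteria incubated seven days before Alamar blue readout; 0% = bacteria only wells and 100% = bacteria with antibiotic wells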
YopH PTP inh – YopH tyrosine phosphatase inhibitors, primary screen, biochemical, fluorescence Ex485/Em525; inhibition, %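 (about 10 µM by stock and volumes)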; 140,000 tested, 0.16% active; YopH tyrosine phosphatase [Yersinia enterocolitica]; AID 898, 2007;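 active = inhibition of 50% or more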;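 note: controls were vehicle for no effect and minimum signal wells for full effect; inactives centre near -20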
Mtb bLac sens – beta-lactam sensitization of Mtb H37Rv, H37Rv; M. tuberculosis H37Rv growth with meropenem, percent inhibition; hits of this screen are not shown here; inhibition, % at 25 µM; 330,000 tested, 0.27% active; AID 434955, 2010;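 active = about 74% or more and at least 40 points above the plate without the antibiotic, then above 30% in a dose series; inconclusive = first-round hits that could not be retested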;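 note: growth measured after seven days incubation then overnight dye step; 0% = bacteria only wells and 100% = bacteria with antibiotic; twin plates without the antibiotic show which effects depend on it; some results filed as inactive read as strong as hits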
RecA intein inh – Mtb RecA intein splicing inhibitors, primary screen, biochemical, fluorescence, HTS | Protein RecA (Mycobacterium tuberculosis (strain ATCC 25618 / H37Rv)), P9WHJ3 | cell-free RecA intein splicing | inhibition, %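 (about 9 µM by stock and volumes)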 | 290,000 tested, 0.75% active; in the data active = inhibition above about 30%; inconclusive = no clear call, values can overlap the other calls;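 note: 0% = vehicle wells and 100% = reference inhibitor control wells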
Target sequence (P9WHJ3 whole entry, looked up): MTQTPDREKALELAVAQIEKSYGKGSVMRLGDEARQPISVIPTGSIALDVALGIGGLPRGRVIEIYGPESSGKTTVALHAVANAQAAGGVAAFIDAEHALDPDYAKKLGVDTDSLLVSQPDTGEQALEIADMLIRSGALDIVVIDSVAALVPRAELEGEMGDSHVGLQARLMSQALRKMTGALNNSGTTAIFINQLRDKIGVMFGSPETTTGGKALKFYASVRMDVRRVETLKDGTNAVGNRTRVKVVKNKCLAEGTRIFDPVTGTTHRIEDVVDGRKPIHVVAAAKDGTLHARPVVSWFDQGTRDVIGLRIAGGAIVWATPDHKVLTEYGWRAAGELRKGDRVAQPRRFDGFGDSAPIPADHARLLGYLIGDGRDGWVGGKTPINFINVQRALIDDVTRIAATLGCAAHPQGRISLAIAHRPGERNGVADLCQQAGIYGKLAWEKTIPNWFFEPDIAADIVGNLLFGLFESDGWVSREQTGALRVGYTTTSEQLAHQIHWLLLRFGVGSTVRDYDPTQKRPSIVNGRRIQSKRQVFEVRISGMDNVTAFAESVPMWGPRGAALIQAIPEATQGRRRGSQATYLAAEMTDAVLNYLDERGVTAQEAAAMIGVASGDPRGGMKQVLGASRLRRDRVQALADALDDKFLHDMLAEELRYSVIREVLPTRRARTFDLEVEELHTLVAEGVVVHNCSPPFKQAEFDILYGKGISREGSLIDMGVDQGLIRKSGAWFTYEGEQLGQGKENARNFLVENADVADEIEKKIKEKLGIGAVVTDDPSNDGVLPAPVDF
Arbovirus anti repeat – also measured in Arbovirus anti; calls as there; inhibition, %; measured here: 10K subset replicate screen; many hits read low in the repeat;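 first of two repeat runs on a subset; 0% = infected and 100% = uninfected wells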
Numbers without * were called inactive; ? = inconclusive; / = not tested or not shown. Some of the compounds tested; count on the stated rates, not on these rows.

The first 2 records, to show the layout:
SMILES	Arbovirus anti	Mtb growth	YopH PTP inh	Mtb bLac sens	RecA intein inh	others
CC(=O)Nc1cccc(Nc2nc(-c3cccs3)nc3ccccc23)c1	/	/	/	6	-1.3
Oc1ccc2ccccc2c1C=Nc1ccccc1Br	/	/	/	-1	-2.6

Main list, previewed entries included:
SMILES	Arbovirus anti	Mtb growth	YopH PTP inh	Mtb bLac sens	RecA intein inh	others
CC(=O)Nc1cccc(Nc2nc(-c3cccs3)nc3ccccc23)c1	/	/	/	6	-1.3
Oc1ccc2ccccc2c1C=Nc1ccccc1Br	/	/	/	-1	-2.6
Cc1[nH]c2ccccc2c1C(=O)C(C)OC(=O)C1CCC1 (centres undefined)	/	/	/	-9	1.9
COc1cc(CN2CCN(c3ncccn3)CC2)cc(OC)c1	/	/	/	-2	-0.3
O=C(CN1CCOCC1)OCCCc1ccccc1	1	-10%	-13	-9	-3.1
O=c1ccnc(Nc2ccc(Cl)cc2)[nH]1	/	-6%	/	-7	-1.3
CCC(CO)N=CC1=C(O)C(C(=O)c2ccccc2)CCC1=O (centres undefined)	25	9%	-22	-4	/	Arbovirus anti repeat=5
C(=N\n1cnnc1)/c1cccn1-c1ccccc1	9	-4%	-54	-5	-0.9
CN(C)c1ccc(S(=O)(=O)N(C)C)cc1NC(=O)Cc1cccc2ccccc12	/	/	/	-4	7.1
Cc1cc(/C=C/C(=O)O)c(C)n1-c1ccc(Cl)cc1	-4	77%	/	94	3.5
COc1ccc(-c2nnn(CC(=O)N(CC3CCCO3)C(C(=O)NC(C)(C)C)c3ccco3)n2)cc1OC (centres undefined)	1	-1%	/	-7	0.6
COc1ccc(OC)c(C(=O)CSc2nc3c(c(=O)n(C)c(=O)n3C)n2C(C)C)c1	2	-5%	-54	/	-1.8
CN1CCN(C(=O)Nc2ccc([N+](=O)[O-])cc2)CC1	/	-15%	/	-13	0.8
OCCCc1n[nH]c(=S)n1-c1ccccc1	-1	-3%	/	-1	-0.3
CCOC(=O)c1c(SC)nc(SC)c2c1CCC2	7	7%	-18	58	1.6
CCN(Cc1cc(=O)n2cc(Cl)c(C)c(Cl)c2n1)Cc1nc2ccccc2c(=O)[nH]1	26	-5%	/	2	1.5
Cc1ccccc1Nc1nc(N)nc(COC(=O)CC2CC3CCC2C3)n1 (centres undefined)	5	0%	-40	-5	2.1
Cn1cc(Cl)c(-c2n[nH]c(=S)n2-c2ccccc2)n1	4	5%	-36	-3	1.6
COc1ccc(Cc2nnc(Cl)c3ccccc23)cc1OC	/	/	/	5	4.2
CCCN(CC(=O)Nc1ccccc1C)C(=O)c1ccc(-c2ccccc2)cc1	/	/	/	65	1.7

Overlap with the part before: three entries; new compounds follow.
SMILES	Arbovirus anti	Mtb growth	YopH PTP inh	Mtb bLac sens	RecA intein inh	others
Cn1cc(Cl)c(-c2n[nH]c(=S)n2-c2ccccc2)n1	4	5%	-36	-3	1.6
COc1ccc(Cc2nnc(Cl)c3ccccc23)cc1OC	/	/	/	5	4.2
CCCN(CC(=O)Nc1ccccc1C)C(=O)c1ccc(-c2ccccc2)cc1	/	/	/	65	1.7
COc1ccccc1C(=O)N1CCN(Cc2nc3cc([N+](=O)[O-])ccc3n2C)CC1	3	-1%	/	2	-0.8
COc1ccc(N=CC2=C(O)CCCC2=O)cc1	-24	45µM*	3	96	-7.4
CCn1ncc(NC(=S)Nc2ccc3c(c2)OCO3)c1C(N)=O	-4	4%	/	-6	19
COc1ccc2c(c1)CCCN2S(=O)(=O)c1ccc(Cl)cc1	/	/	/	-1	6.9
O=[N+]([O-])c1cc(-c2csc(NCCc3nc4cc(Cl)c(Cl)cc4n3CCCO)n2)ccc1Cl	/	-11%	/	5	7.6
O=C(O)CC/C(=N\Nc1ccc([N+](=O)[O-])cc1)c1ccccc1	/	52%	/	96	0.1
COc1cccc(NC(=S)N2CCN(S(=O)(=O)c3ccc(F)cc3)CC2)c1	/	/	/	2	-0.5
CC(NC(=O)c1ccc2ccccc2n1)c1ccc(S(N)(=O)=O)cc1 (centres undefined)	/	/	/	9	2.5
CC(CN1CCCCC1)OC(=O)COc1ccc(Cl)cc1 (centres undefined)	/	/	/	2	-0.6
Cc1nnc(NC(=O)C2CCCO2)s1 (centres undefined)	0	-1%	-36	-6	1.5
COc1ccc(S(=O)(=O)Cc2ccc(C(=O)NCCCN3CCc4ccccc4C3)o2)cc1	-11	-1%	-41	-1	4.8
O=C(CSCc1ccc(Br)cc1)NCc1ccccn1	-4	6%	/	3	-2.0
Cc1cccc(NC(=O)CCC(=O)N/N=C/c2cc([N+](=O)[O-])ccc2O)c1	-20	-8%	-11	12	-1.5
O=C(NCCCO)/C(=C\c1ccco1)NC(=O)c1ccco1	/	/	/	1	-0.6
COc1ccc(CN(CC(=O)NC2CCCC2)C(=O)CCC(=O)Nc2cc(C)on2)cc1	9	-5%	-19	-14	-0.3
N#C/C(=C/c1ccc(N2CCCC2)c([N+](=O)[O-])c1)c1nc2ccccc2[nH]1	-5	-6%	-27	-8	-1.1
O=C(CC(=O)NN=C1CCCCCC1)NCc1cccnc1	13	0%	/	1	0.9
CCOC(=O)c1c(C=O)c(C)n(Cc2ccccc2)c1C	4	2%	-10	2	1.0
Cc1ccc(NC(=S)NC2CCN(Cc3ccccc3)CC2)cc1C	1	3%	/	4	3.4
O=C(CCc1ccc(F)c(F)c1)NC1CCCN(Cc2ccc(Cl)cc2)C1 (centres undefined)	/	/	/	-1	3.1
COc1cc(-c2ccc(NC(C)=O)c(OC)c2)ccc1NC(C)=O	/	-3%	/	-1	1.1
O=C(CSc1ccc(-c2ccco2)nn1)NCc1ccc(Cl)cc1	-8	-5%	-24	-5	1.5
CCC(C)Sc1nc2c(c(=O)[nH]c(=O)n2C)n1Cc1ccc(Cl)cc1 (centres undefined)	21	0%	-25	-6	1.7
CC(=O)c1ccc(OCCCC(=O)NCC(c2ccco2)N(C)C)cc1 (centres undefined)	-4	-3%	-16	-11	1.1	Arbovirus anti repeat=0
COC(=O)c1c(N2C(=O)[C@H]3[C@@H](C2=O)[C@]2(C(=O)Nc4ccccc42)N2CCC[C@@H]32)sc(C)c1C	1	0%	/	3	-2.1
CN(C)c1nc(Cl)nc(NCCOc2ccccc2)n1	4	1%	-36	5	0.3
Nc1c(C(=O)NCc2ccco2)nnn1-c1ccccc1	-6	-11%	-57	2	1.4
Cc1ccc(N2C(=O)NC(=O)/C(=C/c3cnc(-c4ccccc4)nc3)C2=O)cc1C	0	-4%	-28	6	1.1
Cc1cccc(OC(C)C(=O)N2CCCc3ccccc32)c1 (centres undefined)	0	6%	1	0	3.0
Cc1cc(NC(=O)CCC(=O)N(CC(=O)NCC2CCCO2)c2cccc(C)c2C)no1 (centres undefined)	/	/	/	1	-1.2

Two records drawn at random from those above:
SMILES	Arbovirus anti	Mtb growth	YopH PTP inh	Mtb bLac sens	RecA intein inh	others
Cc1cccc(OC(C)C(=O)N2CCCc3ccccc32)c1 (centres undefined)	0	6%	1	0	3.0
Nc1c(C(=O)NCc2ccco2)nnn1-c1ccccc1	-6	-11%	-57	2	1.4

Next results follow.
SMILES	Arbovirus anti	Mtb growth	YopH PTP inh	Mtb bLac sens	RecA intein inh	others
CCOc1ccccc1NC(=S)NC1CCCCC1	11	0%	-15	7	-0.5
Cc1cc(N2CCN(Cc3cn(C)nc3-c3cccc(Cl)c3)CC2)cc(C)n1	-31	-6%	/	11	-2.6
Cc1ccc(NCCC(=O)c2cccc([N+](=O)[O-])c2)c(C)c1	-5	1%	-24	74	2.0
CCOc1ccccc1NC(=O)COc1ccc2c(c1)OCO2	/	/	/	2	-0.3
O=C(OCC(=O)N1CCCc2ccccc21)c1cccc(C(F)(F)F)c1	/	/	/	-1	4.5
Cc1ccc(C2CN(c3ccccc3)CC2C(=O)c2ccc(F)cc2)cc1 (centres undefined)	6	10%	9	-7	-7.4
COc1ccc(Cl)cc1NC(=O)Nc1ccc(Br)cn1	3	-5%	-20	?	0.1
FC(F)(F)c1cc(-c2ccco2)nc(NCc2ccc(Cl)cc2)n1	-40	5%	-23	7	21
COc1ccc(OC)c(NC(=S)NCCSc2ccc(C)cc2)c1	17	6%	-28	0	6.5
COc1ccccc1NC(=O)CN1CCN(C2c3ccccc3-c3ccccc32)CC1	-20	>100µM*	-44	92	13
Cc1ccc(CNC(=O)c2ccc(COc3ccccc3)cc2)cc1	-10	4%	-21	3	0.8
CCOc1ccc(CCNC(=O)C2CCCN(S(=O)(=O)N3CC(C)CC(C)C3)C2)cc1OCC (centres undefined)	/	/	/	-4	-3.1
COc1cccc(Cl)c1NC(=O)N1CCN(c2ccnc3cc(Cl)ccc23)CC1	/	13%	/	86	13
Cc1cccc(C)c1OCc1cc(C(=O)N2CCC[C@H]2C(N)=O)no1	/	/	/	-3	-1.4
NC(=O)[C@@H]1CCCN1Cc1nc(Cc2ccccc2Cl)no1	6	0%	/	-11	-0.6
COc1ccc(C(=O)N(C)Cc2ccccc2)cc1Br	1	4%	-25	1	1.6
O=C(OCc1ccc([N+](=O)[O-])cc1)C1CC(=O)N(Cc2ccccc2Cl)C1 (centres undefined)	/	/	/	-3	-0.3
O=C(Cn1c(=O)oc2ccccc21)Nc1ccc(F)c(F)c1	/	/	/	-6	0.9
CCN1C(=O)/C(=C\N(C)C)S/C1=N\S(=O)(=O)c1ccc(C)cc1	3	1%	/	2	0.5
Cc1nc2nc(SCc3nc4ccccc4[nH]3)[nH]c2cc1Br	/	?	/	12	-0.1
O=C(OCC(=O)N1c2ccccc2Sc2ccccc21)c1ccc[n+]([O-])c1	11	1%	/	9	/
COc1cccc(C(=O)COc2ccc3c(C)cc(=O)oc3c2)c1	/	/	/	7	-1.3
Cc1ccc(S(=O)(=O)NCCC(=O)NCc2cccnc2)cc1	/	/	/	-4	-1.4
Cc1cccc(NS(=O)(=O)c2cc(C(=O)N3CCN(C)CC3)ccc2C)c1	8	-7%	4	9	-1.2
O=C(CSc1nnnn1C1CCCC1)c1ccc2c(c1)OCCO2	6	1%	-55	1	3.7
Cc1noc(C)c1-c1nnc(-c2ccc(OC(F)(F)F)cc2)o1	/	-8%	/	-8	/
CCN(CC)c1ccc(S(=O)(=O)N2CCOCC2)cc1NC(=O)CSc1cccc[n+]1[O-]	1	2%	-21	78	1.0
Cc1c(C(=O)NN2CCOCC2)oc2ccccc12	2	0%	/	-8	-0.5
CCCCc1ccc(-c2nc(N)n[nH]2)cc1	-4	-10%	-42	7	4.4
CC(C)(C)CC(=O)OCC(=O)Nc1cc(C(C)(C)C)nn1-c1ccccc1	-4	4%	-20	-3	-2.7
COCCNC(=O)CSc1nnc(-c2ccccc2)c(-c2ccccc2)n1	-2	-3%	/	-4	0.7
O=C(Cc1ccsc1)NNC(=O)c1ccc(F)cc1	/	/	/	-14	-2.3
COC(=O)c1ccccc1NC(=O)N[C@@H](C)C(=O)OC	0	-7%	-15	0	-1.8
S=C(NCC1CCCO1)N1CCN(Cc2ccccc2)CC1 (centres undefined)	-4	-4%	/	-5	-2.4
CCCc1c(C(=O)OCC)[nH]c2c1C(=O)CCC2	-2	-3%	3	-4	-0.1	Arbovirus anti repeat=-2
O=C(NC1CSCC1OC(=O)c1ccccc1)c1ccccc1 (centres undefined)	/	1%	/	2	5.1
CSCCC(NS(=O)(=O)c1cccs1)C(=O)NCc1cccs1 (centres undefined)	6	4%	-39	-13	0.0
CCc1ccc(N2C(=O)CN(Cc3ccc(OC)c(OC)c3)C2=S)cc1	0	17%	1	2	0.0
Cc1csc(=O)n1CC(=O)OCC(=O)c1ccc(Br)cc1	/	/	/	-4	-1.4
O=[N+]([O-])c1ccc(CN2CCCCCC2)cc1	/	/	/	8	-0.5
O=C(CSc1nccn1Cc1ccccc1)Nc1nccs1	4	10%	-27	-1	-4.2
CCCCN(C(=O)CSCC(=O)Nc1ccc(OC)cc1)c1c(N)n(CCC)c(=O)[nH]c1=O	/	/	/	-1	-6.9
COc1ccc(Cl)cc1N(CC(=O)N1CCCC1)S(=O)(=O)c1ccc(C)cc1	/	/	/	1	-2.0
CCCc1nc(SCC(=O)N2CCC(C)CC2)c2c(=O)n(C)c(=O)n(C)c2n1	/	-3%	/	-2	3.7
COc1ccc(CCn2nnnc2C(C(C)C)N2CCC(C(N)=O)CC2)cc1OC (centres undefined)	7	-2%	-38	-7	-2.3
Nn1c(SCc2cccc(C(F)(F)F)c2)nnc1-c1ccco1	-12	-1%	-34	-3	-0.5
